DUX4 inh: inhibitors of DUX4-driven ZSCAN4 reporter expression, primary screen, 293T cells, Gaussia and Italica luciferase. 293T-iDUX4 ZSCAN4-Gaussia luciferase reporter, 24 h; active compounds read low. activity change, negative = inhibition, % (concentration not given with the values). 37,000 tested, 0.8% active;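 active = -10% or lower and over 25 points stronger than a control reporter; inconclusive = -10% or lower with a smaller gap; inactive = above -10%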;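 note: 0% = median of neutral control wells and -100% = median of positive control wells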
DUX4 inh difference: further read-out of DUX4 inh, marked with its call; Gaussia minus Italica difference, %; measured here: selective DUX4 reporter inhibition;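 worked out from the two reporters; negative = selective loss of the DUX4 reporter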
DUX4 inh control: second read-out of DUX4 inh, no call of its own (marks repeat the call); activity change, negative = inhibition, %; measured here: Italica tet-on control reporter;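 0 = neutral control and -100 = positive control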
Active calls of the source: *; ? = inconclusive; . = no result given. The list is partial, so the mix of outcomes need not match the whole.

SMILES | DUX4 inh | DUX4 inh difference | DUX4 inh control
CN(C)CC(=O)Nc1ccc2c(c1)[C@@H]1C[C@@H](CC(=O)NCCN3CCCCC3)O[C@@H](CO)[C@@H]1O2 | -3 | -3 | 0.4
O=C(c1cnccn1)N1CC(=O)N2[C@H](CO)[C@H](c3ccc(C#CCc4ccccc4)cc3)[C@@H]2C1 | -1 | -10 | 9.2
CO[C@H]1CC[C@H]2CCN(C)C(=O)[C@@H](C)[C@@H](OC)CN(C)C(=O)c3cc(C#N)ccc3OC[C@@H]1O2 | 0 | 2 | -1.7
O=C(C[C@@H]1C[C@@H]2c3cc(NC(=O)Cc4ccncc4)ccc3O[C@@H]2[C@@H](CO)O1)NCc1ccc2c(c1)OCO2 | -2 | -3 | 1.9
CCCNC(=O)N1C[C@@H]2[C@H](c3ccccc31)[C@@H](CO)N2C(=O)CN1CCOCC1 | 0 | -3 | 2.5
C[C@@H]1CN([C@@H](C)CO)S(=O)(=O)c2ccc(C#CC3(O)CCCC3)cc2O[C@H]1CN(C)C(=O)c1cccnc1 | 2 | 0 | 1.7
CO[C@H]1CC[C@H]2CCN(C)C(=O)C[C@H](c3ccccc3)CN(C)C(=O)c3cccc(C#N)c3OC[C@@H]1O2 | ? | . | .
CCNC(=O)[C@H]1[C@H](CO)[C@H]2Cn3c(cccc3=O)[C@@H]1N2CC1CCOCC1 | 1 | 0 | 1.0
CCCC#Cc1ccc([C@H]2[C@@H](CO)N3C(=O)CN(C(=O)c4cccnc4)C[C@H]23)cc1 | 9 | 5 | 3.7
C[C@@H]1CN([C@H](C)CO)C(=O)c2cc(-c3ccc(C#N)cc3)cnc2O[C@H]1CN(C)C(=O)Nc1ccccc1 | -2 | -4 | 1.9
CCC(=O)N1CCC2(CC1)CN(CC1CCOCC1)[C@H](CO)c1c2c2ccc(OC)cc2n1C | 8 | 0 | 8.2
COc1ccc(S(=O)(=O)N(C)C[C@H]2Oc3c(cccc3N(C)C)C(=O)N([C@H](C)CO)C[C@@H]2C)cc1 | -7 | -6 | -0.3
CCC(=O)N1CC[C@@H]2[C@@H](CO)Nc3ccc(C#Cc4ccccc4F)cc3[C@@H]21 | 5 | -9 | 15
O=C1CNC[C@H]2[C@@H](c3ccc(C4=CCCC4)cc3)[C@H](CO)N12 | 18 | 13 | 5.0
Cc1noc(C)c1NC(=O)Nc1cccc2c1O[C@H](CN(C)C(=O)Nc1ccc3c(c1)OCO3)[C@@H](C)CN([C@@H](C)CO)C2=O | 1 | -1 | 2.8

Retrieved by compound from above, 3 records:
SMILES | DUX4 inh | DUX4 inh difference | DUX4 inh control
O=C(C[C@@H]1C[C@@H]2c3cc(NC(=O)Cc4ccncc4)ccc3O[C@@H]2[C@@H](CO)O1)NCc1ccc2c(c1)OCO2 | -2 | -3 | 1.9
CN(C)CC(=O)Nc1ccc2c(c1)[C@@H]1C[C@@H](CC(=O)NCCN3CCCCC3)O[C@@H](CO)[C@@H]1O2 | -3 | -3 | 0.4
Cc1noc(C)c1NC(=O)Nc1cccc2c1O[C@H](CN(C)C(=O)Nc1ccc3c(c1)OCO3)[C@@H](C)CN([C@@H](C)CO)C2=O | 1 | -1 | 2.8

As entered above:
`O=C1CNC[C@H]2[C@@H](c3ccc(C4=CCCC4)cc3)[C@H](CO)N12` – DUX4 inh control: 5.0
`Cc1noc(C)c1NC(=O)Nc1cccc2c1O[C@H](CN(C)C(=O)Nc1ccc3c(c1)OCO3)[C@@H](C)CN([C@@H](C)CO)C2=O` – DUX4 inh difference: -1
`CN(C)CC(=O)Nc1ccc2c(c1)[C@@H]1C[C@@H](CC(=O)NCCN3CCCCC3)O[C@@H](CO)[C@@H]1O2` – DUX4 inh control: 0.4
`CCCC#Cc1ccc([C@H]2[C@@H](CO)N3C(=O)CN(C(=O)c4cccnc4)C[C@H]23)cc1` – DUX4 inh: 9
`CO[C@H]1CC[C@H]2CCN(C)C(=O)[C@@H](C)[C@@H](OC)CN(C)C(=O)c3cc(C#N)ccc3OC[C@@H]1O2` – DUX4 inh: 0

(listing goes on)
SMILES | DUX4 inh | DUX4 inh difference | DUX4 inh control
Cc1cccc(S(=O)(=O)N[C@@H]2CC[C@H](CCn3cc(-c4ccccn4)nn3)O[C@H]2CO)c1 | 4 | 9 | -5.5
O=C(C1CC1)N1C[C@@H]2[C@H](c3ccccc31)[C@@H](CO)N2C(=O)c1ccccn1 | -3 | -7 | 3.7
COCC(=O)N1[C@H](C(=O)Nc2ccccc2)[C@@H](CO)[C@@H]2Cn3c(ccc(-c4ccncc4)c3=O)[C@@H]21 | 1 | 8 | -6.3
CO[C@H]1CN(C)C(=O)c2ccc(NS(=O)(=O)CC(F)(F)F)cc2OC[C@H](C)N(C(=O)c2ccc3c(c2)OCO3)C[C@@H]1C | 5 | 1 | 3.6
CC(=O)NC[C@@H]1[C@@H](c2ccc(-c3ccccc3F)cc2)[C@H](CO)N1C(C)=O | 2 | 1 | 0.9
C[C@@H]1CN([C@@H](C)CO)S(=O)(=O)c2ccc(C#CC3(O)CCCC3)cc2O[C@@H]1CN(C)C(=O)c1cccnc1 | 2 | -3 | 4.3
COc1cccc(-c2ccc3c(c2)O[C@H](CN(C)C(=O)c2ccccc2F)[C@@H](C)CN([C@H](C)CO)S3(=O)=O)c1 | 0 | 1 | -1.1
CC(C)CC#Cc1cnc2c(c1)C(=O)N([C@@H](C)CO)C[C@@H](C)[C@H](CN(C)Cc1cccc(F)c1)O2 | 3 | -1 | 3.9
Cc1noc(C)c1S(=O)(=O)N(C)C[C@H]1OCCCC[C@@H](C)Oc2ccc(NS(=O)(=O)c3cn(C)cn3)cc2C(=O)N([C@H](C)CO)C[C@@H]1C | -2 | -6 | 4.0
CCNC(=O)Nc1ccc2c(c1)C(=O)N(C)[C@@H]1CC[C@@H](CC(=O)NC3CCCCC3)O[C@@H]1CO2 | -5 | -1 | -4.8
CC(=O)N1CC2(C1)[C@@H](c1ccc(-c3ccccc3C)cc1)[C@@H](CO)N2C(C)=O | 0 | -10 | 10
O=C(C[C@H]1C[C@@H]2c3cc(NC(=O)Nc4ccc(C(F)(F)F)cc4)ccc3O[C@@H]2[C@@H](CO)O1)NCC1CC1 | ? | . | .
C[C@H]1CN([C@@H](C)CO)C(=O)CCCn2nncc2CO[C@H]1CN(C)C(=O)CCCN(C)C | 2 | 3 | -0.6
C[C@H](CO)N1C[C@H](C)[C@H](CN(C)C(=O)Nc2ccc(C(F)(F)F)cc2)Oc2ncc(C3=CCCC3)cc2C1=O | -1 | -2 | 1.0

Full records, quoted from the list. Order of values: DUX4 inh, DUX4 inh difference, DUX4 inh control
C[C@H]1CN([C@@H](C)CO)C(=O)CCCn2nncc2CO[C@H]1CN(C)C(=O)CCCN(C)C across the screens: 2, 3, -0.6
C[C@H](CO)N1C[C@H](C)[C@H](CN(C)C(=O)Nc2ccc(C(F)(F)F)cc2)Oc2ncc(C3=CCCC3)cc2C1=O across the screens: -1, -2, 1.0
O=C(C1CC1)N1C[C@@H]2[C@H](c3ccccc31)[C@@H](CO)N2C(=O)c1ccccn1 across the screens: -3, -7, 3.7
CO[C@H]1CN(C)C(=O)c2ccc(NS(=O)(=O)CC(F)(F)F)cc2OC[C@H](C)N(C(=O)c2ccc3c(c2)OCO3)C[C@@H]1C across the screens: 5, 1, 3.6
